NOMO-1 viab: STK33 inhibitor candidate reducing NOMO-1 cell viability; NOMO-1 AML viability, CellTiter-Glo luminescence, 72 h; inhibition, % (no concentration beside the values); hit rate 7.5% among 37,000;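 active means most replicates above 80%; inconclusive means exactly half above 80%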;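 further: wells of about 30 µL received 25 nL stock; 0% = median of vehicle wells and 100% = reference inhibitor level; the first replicate is given; inactives centre near 10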
* marks the source's active call; other numbers are inactive results; ? = inconclusive. These rows are one share of the data; rates above refer to the full screens.

SMILES | NOMO-1 viab
C[C@@H]1CN([C@@H](C)CO)C(=O)c2cc(NC(=O)Cc3cn(C)c4ccccc34)ccc2O[C@H]1CN(C)Cc1ccc(C(=O)Nc2ccccc2N)cc1 | 51
Cc1noc(C)c1NC(=O)Nc1ccc2c(c1)C(=O)N([C@@H](C)CO)C[C@@H](C)[C@H](CN(C)C(=O)Nc1ccc(F)cc1)O2 | 31
CC(C)Cc1nc(SCC(=O)Nc2ccc3ccccc3c2)n[nH]1 | 1
Cc1ccc(S(=O)(=O)N(C)C[C@H]2Oc3ccc(NC(=O)Nc4ccccc4)cc3C(=O)N([C@H](C)CO)C[C@H]2C)cc1 | 10
Cc1ccc(OCCCn2c(CO)nc3ccccc32)cc1 | 36
Cc1noc(C)c1NC(=O)Nc1ccc2c(c1)C(=O)N([C@H](C)CO)C[C@H](C)[C@@H](CN(C)Cc1ccc(C(=O)Nc3ccccc3N)cc1)O2 | -19
C[C@H]1CN([C@@H](C)CO)C(=O)c2cccc(NC(=O)Nc3cccc4ccccc34)c2O[C@H]1CN(C)Cc1ccc(-c2ccccc2)cc1 | 50
O=C(NCCN1CCOCC1)c1cccc(S(=O)(=O)N2CCCCCC2)c1 | 4
O=C(NCCC(c1ccccc1)c1ccccc1)c1cc2ccccc2c(=O)o1 | 27
CC(C)NC(=O)N(C)C[C@H]1Oc2ccc(NC(=O)NC3CCCCC3)cc2C(=O)N([C@@H](C)CO)C[C@H]1C | -1
COc1ccc(-n2c(SCC(=O)Nc3ccccc3OC)nc3sc4c(c3c2=O)CCCC4)cc1 | 4
C/C=C/C(O)C(C)CC(C)C(OC(=O)CCC(=O)O)C(C)/C=C/C=C/C=C(\C)C(=O)O (configuration not stated) | ?
COc1ccccc1NC(=O)C1=C(C)Nc2nnnn2C1c1ccccc1OC (configuration not stated) | -3
Cc1noc(C)c1S(=O)(=O)Nc1ccc2c(c1)CC(=O)N([C@@H](C)CO)C[C@@H](C)[C@@H](CN(C)Cc1ccncc1)O2 | -14
C[C@@H]1CN([C@@H](C)CO)C(=O)c2cc(NC(=O)Nc3ccc(F)cc3)ccc2O[C@H]1CN(C)C(=O)Nc1cccc2ccccc12 | 0
C[C@@H]1CN([C@H](C)CO)C(=O)Cc2cc(NC(=O)C3CC3)ccc2O[C@H]1CN(C)Cc1ccc(C(=O)Nc2ccccc2N)cc1 | 45
COc1ccc(NC(=O)Nc2ccc3c(c2)C(=O)N([C@H](C)CO)C[C@H](C)[C@@H](CN(C)C)OCCCC[C@@H](C)O3)cc1 | 25
CNC[C@H]1Oc2c(NC(=O)Nc3c(C)noc3C)cccc2C(=O)N([C@H](C)CO)C[C@@H]1C | 5
CCn1c(SCC(=O)c2c[nH]c3ccccc23)nnc1-c1cccs1 | 62
C[C@@H]1CN([C@@H](C)CO)C(=O)Cc2cc(NC(=O)C3CC3)ccc2O[C@@H]1CN(C)Cc1ccc(-c2ccccc2)cc1 | 43
C[C@@H]1CN([C@H](C)CO)C(=O)c2cc(NC(=O)CCN3CCOCC3)ccc2O[C@H]1CN(C)CC1CCCCC1 | 0
CCc1ccccc1NC(=O)CSc1ncnc2sc(C)c(C)c12 | 22
O=C1c2oc3ccccc3c(=O)c2C(c2ccc([N+](=O)[O-])cc2)N1CCCO (configuration not stated) | 4
Cc1ccc([N+](=O)[O-])cc1S(=O)(=O)NCc1cccnc1 | 32
C[C@@H]1CN([C@H](C)CO)C(=O)c2cccc(NC(=O)c3nc4ccccc4s3)c2O[C@H]1CN(C)Cc1ccc(C(=O)Nc2ccccc2N)cc1 | 120*
C[C@H]1CN([C@@H](C)CO)C(=O)c2cccc(NC(=O)c3ccc(-c4nccs4)cc3)c2O[C@H]1CN(C)C(=O)NC1CCCCC1 | 30
CC1=C(C#N)C(C(F)(F)F)(C(F)(F)F)N=C(c2ccncc2)N1 | 16
COc1ccccc1OCC(=O)Nc1c[nH]c(=O)[nH]c1=O | 20
CCC/C=C/C=C/C1CC(O)C(O)C(O)C1CO (configuration not stated) | 3
COc1ccc(CN(C)C[C@@H]2Oc3c(NS(=O)(=O)c4c(C)noc4C)cccc3C(=O)N([C@@H](C)CO)C[C@@H]2C)cc1 | 24
C[C@H](CO)N1C[C@H](C)[C@H](CN(C)C)Oc2ccc(NS(=O)(=O)c3ccccc3)cc2CC1=O | 7
C[C@@H]1CN([C@@H](C)CO)C(=O)c2cccc(NC(=O)Nc3ccc(F)cc3)c2O[C@H]1CN(C)Cc1ccccc1 | 102*
Cc1noc(C)c1S(=O)(=O)Nc1ccc2c(c1)CC(=O)N([C@@H](C)CO)C[C@H](C)[C@H](CN(C)Cc1ccccc1)O2 | 19
Cc1noc(C)c1NC(=O)N(C)C[C@@H]1OCCCC[C@@H](C)Oc2ccc(NC(=O)C3CCCCC3)cc2C(=O)N([C@H](C)CO)C[C@@H]1C | 15
COc1cc(/C=C/c2cc(O)cc(O[C@@H]3O[C@H](CO)[C@@H](O)[C@H](O)[C@H]3O)c2)ccc1O[C@@H]1O[C@H](CO)[C@@H](O)[C@H](O)[C@H]1O | 10
C[C@@H]1O[C@@H](Oc2cc(O)c3c(=O)c(O[C@@H]4O[C@@H](C)[C@H](O)[C@@H](O[C@@H]5OC[C@@H](O)[C@H](O)[C@H]5O)[C@H]4O[C@@H]4O[C@H](CO)[C@@H](O)[C@H](O)[C@H]4O)c(-c4ccc(O)c(O)c4)oc3c2)[C@H](O)[C@H](O)[C@H]1O | 15
C[C@@H]1CN([C@@H](C)CO)C(=O)c2cc(NS(=O)(=O)c3cn(C)cn3)ccc2O[C@H]1CN(C)Cc1ccc(C(=O)Nc2ccccc2N)cc1 | 49
COc1ccccc1CC(=O)Nc1cc(OC)c(OC)cc1C(=O)O | 6
CC(C)NC(=O)Nc1ccc2c(c1)C(=O)N([C@H](C)CO)C[C@H](C)[C@@H](CN(C)S(=O)(=O)c1cccs1)O2 | -3
COc1ccc(S(=O)(=O)Nc2ccc3c(c2)C(=O)N([C@H](C)CO)C[C@H](C)[C@@H](CN(C)S(=O)(=O)c2ccc(C)cc2)O3)cc1 | -3
C[C@H]1CN([C@@H](C)CO)C(=O)c2cc(NC(=O)NC3CCCCC3)ccc2O[C@H]1CN(C)C(=O)Nc1ccc(F)cc1 | 17
N#Cc1cc2c(nc1SCC(=O)Nc1ccc(Cl)cc1)CCCCCC2 | ?
C[C@@H]1CN([C@@H](C)CO)C(=O)Cc2cc(NC(=O)Cc3cn(C)c4ccccc34)ccc2O[C@@H]1CN(C)C(=O)Nc1cccc2ccccc12 | 9
C[C@H]1CN([C@@H](C)CO)C(=O)Cc2cc(NS(=O)(=O)c3cn(C)cn3)ccc2O[C@@H]1CN(C)Cc1ccc(C(=O)Nc2ccccc2N)cc1 | 31
COC(=O)c1ccccc1NC(=O)Cn1nc(C(F)(F)F)c2c1CCCCC2 | 18
C[C@@H]1CN([C@H](C)CO)C(=O)c2cc(NC(=O)Nc3ccc(C(F)(F)F)cc3)ccc2O[C@@H]1CN(C)Cc1ccc2c(c1)OCO2 | 49
Cc1ccccc1OCCn1c(C(O)c2ccccc2)nc2ccccc21 (configuration not stated) | 15
COc1cc(OC)c2nc(C)c3c(c2c1)SCC3 | 10
CC(=O)c1cccc(N(CC(=O)N2CCOCC2)S(C)(=O)=O)c1 | -13
C[C@H]1CN([C@@H](C)CO)C(=O)c2cc(N(C)C)ccc2O[C@@H]1CN(C)C(=O)NC1CCCCC1 | 0
COc1ccc(S(=O)(=O)N(C)C[C@H]2Oc3ccc(NS(=O)(=O)c4ccccc4)cc3C(=O)N([C@H](C)CO)C[C@@H]2C)cc1 | -3
O=C(CSc1ncn(-c2ccccc2)n1)Nc1ccc2c(c1)OCCO2 | -1
COc1ccc(NC(=O)Nc2cccc3c2O[C@@H](CN(C)C(=O)Nc2ccc(C(F)(F)F)cc2)[C@H](C)CN([C@@H](C)CO)C3=O)cc1 | 18
C[C@H]1CN([C@@H](C)CO)C(=O)Cc2cc(NC(=O)NC3CCCCC3)ccc2O[C@H]1CN(C)C(=O)NC1CCCCC1 | -24
CCC1NC(=O)c2cc(S(N)(=O)=O)c(Cl)cc2N1 (configuration not stated) | -6
C[C@H](CO)N1C[C@H](C)[C@@H](CN(C)C(=O)Nc2cccc3ccccc23)Oc2c(NS(C)(=O)=O)cccc2C1=O | 5
O=C1CSC(c2ccccc2)N1Cc1ccccc1 (configuration not stated) | 13
Cc1noc(C)c1S(=O)(=O)Nc1ccc2c(c1)C(=O)N([C@H](C)CO)C[C@@H](C)[C@H](CN(C)C(=O)Nc1ccccc1)O2 | 12
C=CCN1C(=O)/C(=C/c2cn(C(C)CC)c3ccccc23)C(=O)NC1=S (configuration not stated) | 132*
C[C@H]1CN([C@@H](C)CO)C(=O)c2cc(NC(=O)Nc3ccc(F)cc3)ccc2O[C@@H]1CN(C)C(=O)NC1CCCCC1 | 10

Continued:
SMILES | NOMO-1 viab
CNC[C@@H]1Oc2c(NS(=O)(=O)c3ccc(Cl)cc3)cccc2C(=O)N([C@H](C)CO)C[C@H]1C | -6
C[C@@H]1CCCCO[C@H](CN(C)S(=O)(=O)c2ccc(Cl)cc2)[C@@H](C)CN([C@H](C)CO)C(=O)c2cc(NC(=O)Nc3ccc(F)cc3)ccc2O1 | 46
Cc1ccc(C)c(N(CC(=O)Nc2cccc([N+](=O)[O-])c2C)S(C)(=O)=O)c1 | -1
CC(C)(C)c1ccc(Cn2c(=N)n(CC(=O)O)c3ccccc32)cc1 | 31
C[C@H](CO)N1C[C@H](C)[C@H](CN(C)S(C)(=O)=O)Oc2ccc(NC(=O)NC3CCCCC3)cc2C1=O | 6
C[C@H]1CN([C@@H](C)CO)C(=O)c2cccc(NC(=O)c3ccc(-c4nccs4)cc3)c2O[C@@H]1CN(C)Cc1ccc(C(F)(F)F)cc1 | ?
CSc1ccccc1-n1nnnc1SCC(=O)Nc1ccccc1Cl | 4
Cc1cc(C(=O)Nc2cccc3c2O[C@H](CN(C)Cc2ccncc2)[C@@H](C)CN([C@H](C)CO)C3=O)n(C)n1 | -3
CNC[C@@H]1Oc2c(NC(=O)NC(C)C)cccc2C(=O)N([C@H](C)CO)C[C@@H]1C | 12
Cc1ccc(-c2nnc(SCC(=O)Nc3ccc(Br)c(Cl)c3)n2C)cc1 | 12
Cc1nc(NCC2CCCO2)c2c(C)c(C)sc2n1 (configuration not stated) | 26
C[C@@H]1CN([C@H](C)CO)C(=O)Cc2cc(NC(=O)CCCCCC(=O)Nc3ccccc3N)ccc2O[C@@H]1CN(C)S(=O)(=O)c1cccs1 | 22

A different layout for 12 compounds above:
Compound,NOMO-1 viab
CNC[C@@H]1Oc2c(NS(=O)(=O)c3ccc(Cl)cc3)cccc2C(=O)N([C@H](C)CO)C[C@H]1C,-6
C[C@@H]1CCCCO[C@H](CN(C)S(=O)(=O)c2ccc(Cl)cc2)[C@@H](C)CN([C@H](C)CO)C(=O)c2cc(NC(=O)Nc3ccc(F)cc3)ccc2O1,46
Cc1ccc(C)c(N(CC(=O)Nc2cccc([N+](=O)[O-])c2C)S(C)(=O)=O)c1,-1
CC(C)(C)c1ccc(Cn2c(=N)n(CC(=O)O)c3ccccc32)cc1,31
C[C@H](CO)N1C[C@H](C)[C@H](CN(C)S(C)(=O)=O)Oc2ccc(NC(=O)NC3CCCCC3)cc2C1=O,6
C[C@H]1CN([C@@H](C)CO)C(=O)c2cccc(NC(=O)c3ccc(-c4nccs4)cc3)c2O[C@@H]1CN(C)Cc1ccc(C(F)(F)F)cc1,?
CSc1ccccc1-n1nnnc1SCC(=O)Nc1ccccc1Cl,4
Cc1cc(C(=O)Nc2cccc3c2O[C@H](CN(C)Cc2ccncc2)[C@@H](C)CN([C@H](C)CO)C3=O)n(C)n1,-3
CNC[C@@H]1Oc2c(NC(=O)NC(C)C)cccc2C(=O)N([C@H](C)CO)C[C@@H]1C,12
Cc1ccc(-c2nnc(SCC(=O)Nc3ccc(Br)c(Cl)c3)n2C)cc1,12
Cc1nc(NCC2CCCO2)c2c(C)c(C)sc2n1 (configuration not stated),26
C[C@@H]1CN([C@H](C)CO)C(=O)Cc2cc(NC(=O)CCCCCC(=O)Nc3ccccc3N)ccc2O[C@@H]1CN(C)S(=O)(=O)c1cccs1,22

Next section:
SMILES | NOMO-1 viab
O=C(O)c1cc(F)cc(C(F)(F)F)c1 | 12
O=S(=O)(c1ccccc1)c1nc(-c2ccccc2F)oc1NCc1cccnc1 | -1
C[C@@H]1CN([C@@H](C)CO)C(=O)c2cc(NS(=O)(=O)c3ccc(F)cc3)ccc2O[C@H]1CN(C)C(=O)Nc1cccc2ccccc12 | 11
COCCCN=C1NS(=O)(=O)c2ccccc21 | -2
CCOC(=O)c1cc(NC(=O)CSc2nc3ccccc3s2)ccc1Cl | -4
Cc1noc(C)c1NC(=O)Nc1ccc2c(c1)CC(=O)N([C@H](C)CO)C[C@@H](C)[C@H](CN(C)Cc1ccc(Oc3ccccc3)cc1)O2 | 19
C[C@H]1CN([C@@H](C)CO)C(=O)Cc2cc(NC(=O)C3CC3)ccc2O[C@@H]1CN(C)C(=O)Nc1cccc2ccccc12 | -4
Cc1noc(C)c1S(=O)(=O)Nc1cccc2c1O[C@@H](CN(C)Cc1ccc(C(=O)O)cc1)[C@@H](C)CN([C@H](C)CO)C2=O | 13
N/C(CSc1nc2ccccc2s1)=N\O | 25
COc1cc(-c2cc(OC)c(C)cc2OC)c(OC)cc1C | 19
CC[n+]1c(C)csc1Nc1ccc(N2CC(C)OC(C)C2)cc1 (configuration not stated) | 47
Cc1nn(Cc2cccc(C(=O)NC(=O)Nc3ccc(Cl)cc3)c2)c(C)c1Br | 107*
O=C(Nc1ccc(Br)c2cccnc12)c1ccc(Cn2cc(Cl)cn2)o1 | 30
COc1ccc(NC(=O)Nc2cccc3c2O[C@H](CN(C)C(=O)Nc2ccc4c(c2)OCO4)[C@@H](C)CN([C@H](C)CO)C3=O)cc1 | 6
COc1ccc(S(=O)(=O)NCc2ccco2)cc1OC | 9

Screens (PubChem BioAssay)
